AID504770 = growth inhibition of E. coli YBA685, primary screen, V. cholerae RctB inhibitors; E. coli YBA685 rctB-dependent plasmid, OD600 growth, 3 h; stronger effect = lower value; 0.27% of 130,000 active; z-score (no concentration beside the values);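 active = z-score under -2 on both plates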;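 also: wells of about 30 µL received 100 nL stock; score is relative to mean and SD of the test wells; the first replicate is given; strong numbers were not always called active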
CapD inh = Bacillus anthracis CapD inhibitors, primary screen, biochemical, fluorescence intensity | CapD gamma-glutamyltranspeptidase (Bacillus anthracis Ames Ancestor) | purified CapD enzyme, fluorescence intensity read-out; stronger effect = lower value; some hits fall short of the stated cut | z-score (no concentration beside the values) | 0.23% of 140,000 active;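 active = z-score under -4 in either of two replicates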;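 also: stock transfer was 100 nL into about 40 µL; score is relative to mean and spread of the plate; one replicate is shown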
Numbers without * were called inactive; i = inactive; . = not tested or not shown. Not all compounds are listed; rates above refer to the full screens.

SMILES	AID504770	CapD inh
O=C(Cc1c(C(=O)O)[nH]c2ccccc12)NCCCN1CCCCCC1	-1.6	-0.18
CCOC(=O)c1[nH]c(C)c(C(=O)OCc2nnc(-c3ccc(Cl)cc3)o2)c1C	-0.7	.
CCOC(=O)C1=C(C)NC(C(=O)NCc2cccc(OC)c2)CS1 (stereo not given)	-1.05	0.4
CCCCCn1c(SCC(=O)NCCc2ccccc2)nc2cc(C(=O)N3CCC(C(N)=O)CC3)ccc2c1=O	.	0.38
CCOC(=O)Cn1cnc(=O)c(C#N)c1C	-1.15	-0.405
COc1ccc(/C=N/NC(=O)c2cc(Cl)ccc2OC)c(O)c1	.	-0.37
O=C(Cc1csc(-c2ccccc2)n1)N/N=C/c1cc2c(cc1Cl)OCO2	.	0.295
CCNc1nc(NCC)nc(N(C#N)CC)n1	-0.45	.
CC(C)(C)c1ccc(C(=O)NC(=O)Nc2ccccc2)s1	.	-0.075
NC(=S)Cc1nc2n(n1)Cc1ccccc1-2	1.8	.
O=C(CN1C(=O)c2cccc3cccc(c23)C1=O)N1CCN(CCN2C(=O)C3C4C=CC(C4)C3C2=O)CC1 (stereo not given)	.	66.8
O=C(CCCn1c(=O)oc2ccccc21)Oc1ccc2c(c1)OCO2	0.3	.
CC(C)(C)c1cc(Sc2nnc(-c3ccc(Cl)cc3)c3ccccc23)cc(C(C)(C)C)c1O	.	-0.62
COc1cccc(NC(=O)N2CCN(C/C=C/c3ccccc3)CC2)c1	2.25	-0.43
CCCCCc1ccc(S(=O)(=O)N2CCN(C(=O)OC(C)(C)C)CC2)cc1	.	-0.275
COc1cccc(OC)c1/C(O)=C(\C#N)c1nc2ccccc2s1	-1.3	.
COC(=O)c1cc2occc2n1CC(=O)N(C)C1CCCCC1	-0.35	0.315
O=C1C2C3C=CC(C3)C2C(=O)N1Cc1ccco1 (stereo not given)	-0.5	0.16
CCOc1ccc(-c2cc(NC(=O)Nc3ccc(F)cc3)c(C(=O)OC)s2)cc1	-0.4	-1.02
COc1ccc(OC)c(S(=O)(=O)N2CCC(CCCC3CCN(S(=O)(=O)c4cc(OC)ccc4OC)CC3)CC2)c1	.	0.24
CC(=O)n1c2c(c3ccccc31)OC(N)=C(C#N)C2c1ccc(Cl)cc1 (stereo not given)	.	0.55
CCC(C)N(Cc1nc2ccccc2c(=O)[nH]1)C(=O)/C=C/c1ccco1 (stereo not given)	-0.65	.
O=C(NCCc1ccccc1)c1ccc(C(=O)c2ccccc2)o1	1.2	-0.32
Cc1nc(C)nc(N(Cc2ccccc2)Cc2ccccc2)n1	-1.4	-0.415
Cc1ccc(N2C(=O)/C(=C/c3ccc(Cl)cc3)C=C2c2ccccc2)c(C)c1	.	0.13
O=C(Nc1nc(-c2ccccc2)cs1)c1cc2cc(Br)ccc2oc1=O	.	-1.06
O=S(=O)(c1cc(Cl)sc1Cl)N1CCN(c2cccc3[nH]ccc23)CC1	.	0.69
CCN(CC)c1cc(Nc2ccc(Br)cc2Br)c([N+](=O)[O-])c2nonc12	.	-0.9
O=S(=O)(c1ccc(OC(F)(F)F)cc1)N1CCN(S(=O)(=O)c2cccs2)CC1	0.25	.
O=C(NCCN1CCOCC1)c1cc(-c2ccc(F)cc2)nc2ccc(Br)cc12	.	0.04
O=C(COC(=O)Cc1c(Cl)cccc1Cl)NCc1ccco1	-3.2	-0.22
O=C(CSc1ncnc2ccccc12)N1CCc2ccccc21	2.2	-0.6
COc1ccc(C(=O)N/N=C/c2cccc(C)n2)cc1	.	-1.21
CCOc1ccc(N2C(=O)NC(=O)/C(=C\c3cc(Cl)c(OCC(=O)O)c(Cl)c3)C2=O)cc1	.	0.075
CCCN(CC1CC1)C(=O)Nc1ccccc1C	2.5	-0.36
CC1CN(C(=O)COC(=O)c2ccc(I)cc2)CC(C)O1 (stereo not given)	-0.1	1.03
CN(C)CCC(=O)c1ccccc1	0.5	0.49
COc1ccc(S(=O)(=O)NCCNc2nc3cc(C)cc(C)c3cc2C#N)cc1	-0.55	.
CCOC(=O)Nc1ccc2c(COC(=O)c3cnc(Cl)c(Cl)c3)cc(=O)oc2c1	-2.7	.
O=C(/C=C/c1ccccc1)C1CC1	-0.25	-0.9
Cc1cc2ncc(C(=O)O)c(C)n2n1	.	1.02
O=C(Oc1cc(Cl)cc(Cl)c1)c1ccc(-c2ccccn2)s1	-0.05	5.74
CCC1CCCCN1C(=O)c1noc2c1CC(C(C)(C)C)CC2 (stereo not given)	-0.45	-0.31
Cc1cccc(C)c1NC(=O)C(C)Oc1ccc(Cl)cc1Cl (stereo not given)	.	0.4
Clc1ccc(OCCCN2CCN(Cc3ccccc3)CC2)cc1	-1.35	0.745
O=C(O)CCCNS(=O)(=O)c1cccc2nsnc12	.	-0.835
O=C1c2cccc3cc([N+](=O)[O-])cc(c23)C(=O)N1Cc1cccnc1	.	-0.19
COc1ccc(-c2nc3ccccc3c(=O)o2)cc1	1.05	-0.215
CC1(C)CC(=O)C(C(NC(=O)c2ccccc2)(C(F)(F)F)C(F)(F)F)=C(O)C1	1.55	0.425
COc1ccc2oc(=O)c(C(=O)N(C)Cc3cccnc3)cc2c1	1.2	.

More results follow:
SMILES	AID504770	CapD inh
COC(=O)c1ccc2c(c1)nnn2C1CCN(Cc2ccccc2)CC1	-0.5	-0.18
CC(C)NC(=O)Oc1cccc(Cl)c1	-0.8	0.515
Cc1ccc2[nH]c3c(c2c1)CN(Cc1ccccc1)CC3	0.35	0.01
CCCNc1cc(C)oc(=O)c1C(=O)CCC	-0.85	-0.285
COc1ccc(C(C#N)=C(SC)SC)cc1	0.2	-1.52
OCCSc1nc2ccccc2n1Cc1ccccc1	0.2	0.09
COc1ccc(C=Nc2c(C)n(C)n(-c3ccccc3)c2=O)cc1OC	.	-0.13
COC(=O)c1c(NC(=O)Nc2ccccc2)sc2c1CCCC2	3.2	25
CC(C)Oc1ccccc1NC(=O)CSc1nc2sc3c(c2c(=O)n1C)CCCC3	.	0.7
Cc1ccc2c(c1)C1CN(C)CCC1N2C(=O)CN1CCCCC1 (stereo not given)	.	0.03

Reformatted: three of the compounds above.
| SMILES | AID504770 | CapD inh |
| --- | --- | --- |
| Cc1ccc2[nH]c3c(c2c1)CN(Cc1ccccc1)CC3 | 0.35 | 0.01 |
| CC(C)NC(=O)Oc1cccc(Cl)c1 | -0.8 | 0.515 |
| CCCNc1cc(C)oc(=O)c1C(=O)CCC | -0.85 | -0.285 |

The list continues.
SMILES	AID504770	CapD inh
CC(C)CNc1nnnc2c1sc1nc(N3CCOCC3)c3c(c12)CCCC3	-0.15	-0.55
N#C/C(=C\c1ccccc1OC(F)F)C(=O)O	-1.05	.
CC1=C(C(=O)OCCc2ccccc2)C(c2ccc(C(F)(F)F)cc2)NC(=O)N1C (stereo not given)	.	-0.285
CCn1cc(C(C)NC(=O)Nc2ccccc2C(=O)OC)c(C)n1 (stereo not given)	-1.2	67.4
CCCSc1nnc(CSc2ncccn2)n1-c1ccccc1	1.25	-1.36
COc1ccc(-c2nc(-c3ccc4sc5ccccc5c4c3)c(-c3ccccc3)[nH]2)cc1OC	.	33.4
COC(OC)C12c3ccccc3C(c3ccccc31)C1C(=O)N(c3ccc(Br)cc3)C(=O)C12 (stereo not given)	.	0.085
CC1CCc2c(sc(NC(=O)c3ccc(S(=O)(=O)N4CCc5ccccc54)cc3)c2-c2nc3ccccc3s2)C1 (stereo not given)	.	-0.08
O=C(c1ccc(COCC(F)(F)F)cc1)N1CCCC1	0.75	0.475
Cc1nccn1CC(=O)N1c2ccccc2Sc2ccccc21	1.85	-0.29
CCN(C(=O)CN1C(=O)c2ccccc2S1(=O)=O)c1cccc2ccccc12	-1.2	-0.015
CC(C)CC(=O)N/C(N)=N/c1nc2ccccc2o1	1.55	-0.535
CC1CCC(NS(=O)(=O)c2cccc(C(F)(F)F)c2)CC1 (stereo not given)	0	.
O=S(=O)(c1ccc(OCc2cnc(Cl)s2)cc1)N1CCOCC1	.	-0.345
O=C1CCC/C1=C1\SCC(=O)N1c1ccccc1	-0.3	-0.845
O=C(OCc1ccc(Cl)cc1)N1CCN(Cc2ccccc2OCc2ccccc2)CC1	.	0.09
O=C1Nc2ccc(Br)cc2C1(O)Cc1ccncc1 (stereo not given)	-0.1	-0.215
COc1ccc(CN(C)C2CCCCC2)c(C)c1C	-0.1	0.185
N/C(CSc1cccs1)=N\O	1.3	-0.605
Cc1cc(C(=O)Nc2sc3c(c2C#N)CCC3)no1	-0.2	2.48
C=CCN1C(=O)c2ccc(C(=O)O)cc2C1=O	-0.05	.
NCC(c1ccc[nH]1)C(F)(F)F (stereo not given)	0.6	-0.115
O=C(COC(=O)c1ccc(S(=O)(=O)NCc2ccco2)cc1)NC1CCCCCC1	-0.55	.
CCC(C)(C)c1ccc(S(=O)(=O)N2CCC(O)(c3ccc(Cl)cc3)CC2)cc1	.	-0.11
CCOc1ccc(CC(=O)NCCn2c(C)cc3ccccc32)cc1	-1.05	0.565
COc1ccc(C(=O)Nc2sc3c(c2C#N)CCC3)cc1OC	-1.2	62
O=C(COC(=O)C1CCN(S(=O)(=O)c2ccc3ccccc3c2)CC1)c1ccccc1	-0.3	-0.17
O=C1Nc2ccccc2/C1=c1/sc2n(c1=O)CN(c1ccccc1)CN=2	1.3	0.48
Cc1ccc(/C(O)=C2\C(=O)C(=O)N(c3nncs3)C2c2ccc(F)cc2)cc1 (stereo not given)	.	-0.41
CCCOC(=O)CSC1=C(C#N)C(c2ccccc2C)C(C#N)C(=O)N1 (stereo not given)	2.55	2.28

Record cards, as listed above. Screens in order: AID504770 | CapD inh
CCC(C)(C)c1ccc(S(=O)(=O)N2CCC(O)(c3ccc(Cl)cc3)CC2)cc1 is entered as . | -0.11
O=C(COC(=O)C1CCN(S(=O)(=O)c2ccc3ccccc3c2)CC1)c1ccccc1 is entered as -0.3 | -0.17
C=CCN1C(=O)c2ccc(C(=O)O)cc2C1=O is entered as -0.05 | .

Next section:
SMILES	AID504770	CapD inh
O=C1C(c2ccc(F)cc2)N(C2CCCC2)C(=O)CN1C1CCCC1 (stereo not given)	-1.05	-0.46
C1=C(c2cccnc2)Nc2ncnn2C1c1cccs1 (stereo not given)	0.05	92.3
Cc1cc(=O)n2ccccc2n1	0.05	10.6
CC(C)(C)OC(=O)N1CCCC[C@@H]1C(=O)O	0.2	1.06
CC(C)(C)c1cc2cc(N(Cc3ccccn3)C(=O)c3ccc(S(C)(=O)=O)cc3)ccc2[nH]1	.	-0.55
O=C(CC1=NC(c2ccccc2O)ON1)N1CCCC1 (stereo not given)	-1.05	0.335
CCOc1cc(-c2nc3sc4c(c3c(=O)[nH]2)CCCC4)cc(Cl)c1OCc1ccccc1F	.	0.39
CCN(CC)c1nc(OCCNC(=O)Nc2ccccc2)nc(N(CC)CC)n1	-0.4	0
COc1cccc(/C=C2/Oc3ccccc3N(CC(=O)NCC3CCCO3)C2=O)c1 (stereo not given)	1.05	-0.775
C=CCN(CC=C)S(=O)(=O)c1ccc(C(=O)O)cc1	0.15	.

Already shown: an excerpt of the list.
SMILES	AID504770	CapD inh
CC(C)(C)c1cc2cc(N(Cc3ccccn3)C(=O)c3ccc(S(C)(=O)=O)cc3)ccc2[nH]1	.	-0.55
O=C(CC1=NC(c2ccccc2O)ON1)N1CCCC1 (stereo not given)	-1.05	0.335

Some values from the results shown:
AID504770 with NC(=S)Cc1nc2n(n1)Cc1ccccc1-2 = 1.8
CapD inh with CCN(CC)c1cc(Nc2ccc(Br)cc2Br)c([N+](=O)[O-])c2nonc12 = -0.9
CapD inh with NCC(c1ccc[nH]1)C(F)(F)F (stereo not given) = -0.115
CapD inh with O=C1Nc2ccc(Br)cc2C1(O)Cc1ccncc1 (stereo not given) = -0.215

(continued)
SMILES	AID504770	CapD inh
Cc1onc(-c2ccccc2)c1-c1ccc(S(N)(=O)=O)cc1	0.1	.
O=C(NCCO)Nc1ccccc1	-0.25	0.52
CC(=O)N1N=C(c2ccc(Br)cc2)CC1c1ccc(N(C)C)cc1 (stereo not given)	.	-0.21
COc1ccc(OC)c(NC(=O)c2sc3ncnc(N4CCN(c5ccccn5)CC4)c3c2C)c1	.	-0.42
Clc1ccc(-c2noc3ncnc(NCCCN4CCCC4)c23)cc1	-0.05	7.97
O=C1COc2ccccc2C(=O)N1	.	-0.045
COc1ccc(C2SCCN2S(=O)(=O)c2ccc(I)cc2)cc1OC (stereo not given)	.	0.14
O=C1c2ccccc2NC(c2ccccc2Cl)N1c1ccc(F)cc1 (stereo not given)	-0.65	37.4
Cc1ccc(C)c(NC(=O)CN(C)C(=O)CSc2nnc(-c3ccc(Cl)cc3)o2)c1	-0.3	.
CCCc1nc2c3ccccc3nc(=S)n2[nH]1	-0.95	-2.46
CCOC(=O)c1c(C)n(-c2ccccc2)c2ccc(OC(=O)c3ccc(S(=O)(=O)N(C)C)cc3)cc12	.	-0.47
CC1(C)CC(=O)c2c(ncc3c2CC(C)(C)CC3=O)C1	-0.95	.
CC1CCCC(NC(=O)c2ccc(N3CCCC3=O)cc2)C1C (stereo not given)	-0.2	29.1
COCCCNC(=O)c1sc2ncnc(N3CCN(c4ccccc4OC)CC3)c2c1C	.	-0.375
N#CC1=C(N)Oc2ccc(Cl)cc2C1C(C#N)C#N (stereo not given)	.	1.89
FC(F)(F)c1cccc(Nc2ncnc3ccccc23)c1	0.75	7.58
O=C(Cn1ccnc1)c1ccc(Cl)cc1Cl	-1	i
COc1ccc([C@@H]2C(C#N)=C(N)S[C@H]2C(=O)c2ccc(C)cc2)cc1	.	-0.325
CCCCN(CC)c1ncnc2sc3c(c12)CCC3	-0.2	.
CC1=C(C(=O)OC2CCCC(C)C2)C(c2ccccc2Cl)NC(=O)N1C (stereo not given)	-0.9	-0.035

Screening data (PubChem)
